DUX4 inh: blocks DUX4-driven transcriptional activation | AID 1224904 | activity change, negative = inhibition, % (concentration not given with the values) | 293T-iDUX4 ZSCAN4-Gaussia luciferase reporter, 24 h; active compounds read low | actives 0.8% (n = 37,000);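 active = -10% or lower and over 25 points stronger than a control reporter; inconclusive = -10% or lower with a smaller gap; inactive = above -10%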;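 also: 0% = median of neutral control wells and -100% = median of positive control wells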
DUX4 inh difference: also measured in DUX4 inh; calls as there; Gaussia minus Italica difference, %; measured here: selective DUX4 reporter inhibition;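 worked out from the two reporters; negative = selective loss of the DUX4 reporter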
DUX4 inh control: further read-out of DUX4 inh, marked with its call; activity change, negative = inhibition, %; measured here: Italica tet-on control reporter;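 0 = neutral control and -100 = positive control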
An asterisk follows results filed as active; ? = inconclusive; . = no result given.

SMILES	DUX4 inh	DUX4 inh difference	DUX4 inh control
C[C@@H]1CN([C@@H](C)CO)C(=O)c2cc(N(C)C)ccc2O[C@H]1CN(C)S(=O)(=O)c1ccc(F)cc1	-0.1	-0.3	0.2
C[C@H]1CN([C@@H](C)CO)C(=O)CCCn2cc(nn2)CO[C@H]1CN(C)S(=O)(=O)c1cccs1	1.9	2.2	-0.3
COc1ccc(S(=O)(=O)N(C)C[C@H]2OCc3ccccc3-c3c(n(C)c4ccccc34)C(=O)N([C@@H](C)CO)C[C@H]2C)cc1	?	.	.
CCCNC(=O)c1cc2c(c(-c3cccc(-c4ccc(C#N)cc4)c3)n1)[C@H](CCO)N(C(=O)CC)C2	1.5	-0.7	2.2
COCC(=O)N1[C@@H]2CN(C(=O)c3ccncc3)c3ccccc3[C@@H]2[C@@H]1CO	-4.8	-4.8	0.0
CC(C)NC(=O)N1CCCCN2[C@H](CO)[C@@H](c3ccc(C#Cc4ccccc4)cc3)[C@@H]2C1	?	.	.
CC(=O)N1CC(=O)N2[C@H](CO)[C@@H](c3ccc(C#Cc4cccnc4)cc3)[C@@H]2C1	-4.5	-16.6	12.1
CCCNC(=O)N(C)C[C@H]1Oc2cc(-c3cccnc3)ccc2S(=O)(=O)N([C@@H](C)CO)C[C@H]1C	2.4	2.9	-0.5
N#C[C@@H]1[C@@H](c2ccc(C#CC3(O)CCCC3)cc2)[C@@H](CO)N1C(=O)C1CCCCC1	0.5	-1.8	2.4
CC(C)C#Cc1ccc([C@H]2[C@H](C#N)N(C(=O)C3CCC3)[C@H]2CO)cc1	-1.3	-2.7	1.4
C[C@@H]1CN([C@H](C)CO)S(=O)(=O)c2ccc(-c3cccc(C(=O)N(C)C)c3)cc2O[C@@H]1CN(C)Cc1ccc2c(c1)OCO2	-0.9	0.7	-1.6
COc1ccc2c3c([nH]c2c1)[C@H](CO)N(Cc1ccccc1F)CC31CN(CC2CC2)C1	?	.	.
C[C@@H]1CN([C@H](C)CO)C(=O)c2cc(NS(=O)(=O)c3cn(C)cn3)ccc2O[C@@H]1CN(C)C(=O)Nc1cccc2ccccc12	-0.9	-3.1	2.2
CCCN(C)C[C@@H]1OCc2cnnn2CCCC(=O)N([C@H](C)CO)C[C@H]1C	4.1	7.9	-3.8
CN(C)C(=O)c1cccc(-c2ccc3c(c2)[C@@H]2[C@@H](CCN2C(=O)c2ccccc2F)[C@H](CO)N3)c1	-6.3	11.6	-17.8
COCC(=O)N1[C@H](CO)[C@@H](c2ccccc2-c2ccccc2)[C@@H]1C#N	23.7	11.0	12.6
COc1ccc2c3c(n(C)c2c1)[C@H](CO)N(Cc1ccc2c(c1)OCO2)CC31CCN(C)CC1	-2.8	-12.4	9.6
C/C=C/c1ccc([C@@H]2[C@H](CO)N(C(C)=O)[C@H]2CN(CC)C(=O)CN(C)C)cc1	-1.3	0.0	-1.3
CCC(=O)N1[C@H](CO)[C@@H](c2ccccc2-c2cccc(C)c2)[C@@H]1C#N	9.7	11.0	-1.3
O=C(c1cccnc1)N1CCCCN2[C@H](CO)[C@@H](c3ccc(C#Cc4ccccn4)cc3)[C@H]2C1	2.3	-2.4	4.7
COc1ccc2c3c(n(C)c2c1)[C@H](CO)N(C(=O)Nc1ccc(F)cc1)CC31CN(C(=O)CN2CCOCC2)C1	3.6	-0.3	3.9
COc1cccc(C#Cc2ccc3c(c2)[C@@H]2[C@@H](CCN2C(=O)c2ccccc2F)[C@@H](CO)N3)c1	7.7	4.9	2.9
Cc1ccc(-c2ccc([C@@H]3[C@@H](CO)N4C(=O)CN(C(=O)CN5CCOCC5)C[C@@H]34)cc2)cc1	4.1	3.0	1.1
CCNC(=O)[C@H]1[C@H](CO)[C@H]2Cn3c(cccc3=O)[C@@H]1N2Cc1cccc(Cl)c1	-4.9	2.4	-7.4
C[C@H](CO)N1C[C@H](C)[C@@H](CN(C)Cc2ccc(C(=O)O)cc2)Oc2ccc(NS(=O)(=O)c3ccccc3)cc2CC1=O	-0.5	-1.0	0.5

Some of the entries so far, with two lines to a compound.
Below each SMILES – DUX4 inh	DUX4 inh difference	DUX4 inh control
> Cc1ccc(-c2ccc([C@@H]3[C@@H](CO)N4C(=O)CN(C(=O)CN5CCOCC5)C[C@@H]34)cc2)cc1
 : 4.1	3.0	1.1
> O=C(c1cccnc1)N1CCCCN2[C@H](CO)[C@@H](c3ccc(C#Cc4ccccn4)cc3)[C@H]2C1
 : 2.3	-2.4	4.7

Next compounds follow.
SMILES	DUX4 inh	DUX4 inh difference	DUX4 inh control
COc1cccc(CN2CC3(CCN(C(C)=O)CC3)c3c(n(C)c4cc(OC)ccc34)[C@@H]2CO)c1	3.5	-12.1	15.7
CCCNC(=O)N1C[C@H](C)[C@H](OC)CN(C)C(=O)c2ccc(NC(=O)C3CCC3)cc2OC[C@@H]1C	3.6	1.5	2.1
C[C@@H]1CN([C@@H](C)CO)C(=O)Cc2cc(NC(=O)C3CCCCC3)ccc2O[C@H]1CN(C)S(=O)(=O)c1ccc(F)cc1	-1.0	-2.7	1.7
O=C(NC1Cc2ccccc2C1)[C@H]1[C@H](CO)[C@H]2Cn3c(ccc(C4=CCCCC4)c3=O)[C@@H]1N2CC1CC1	?	.	.
CC(=O)NC[C@H]1[C@H](c2ccc(-c3cccnc3)cc2)[C@H](CO)N1C(=O)C1CC1	0.0	2.6	-2.7
C[C@@H]1CCCCO[C@@H](CN(C)CC2CCCCC2)[C@H](C)CN([C@H](C)CO)C(=O)c2cc(NC(=O)CCC(F)(F)F)ccc2O1	-2.3	-6.3	4.0
O=C(CC1CC1)N1CC2(C1)[C@H](c1ccccc1)[C@@H](CO)N2Cc1ccccc1	-8.3	-9.0	0.6
O=C(c1cccnc1)N1CC[C@@H]2[C@@H](CO)Nc3ccc(C4=CCCCC4)cc3[C@@H]21	12.2	9.8	2.3
O=C(NCC[C@H]1CC[C@@H](NC(=O)c2ccncc2)[C@@H](CO)O1)Nc1ccc(Cl)cc1	3.7	-0.1	3.8
CN(C)C(=O)C[C@@H]1C[C@@H]2c3cc(NS(C)(=O)=O)ccc3O[C@@H]2[C@@H](CO)O1	3.1	0.7	2.4
CN1c2ccc(-c3ccccc3)cc2[C@H]2[C@H](CCN2C(=O)CC2CC2)[C@H]1CO	-1.7	-3.8	2.1
CN1c2ccc(-c3ccccc3)cc2[C@H]2[C@H](CCN2C(=O)c2ccccc2)[C@@H]1CO	?	.	.
COC(=O)C[C@H]1C[C@@H]2c3cc(NC(=O)Nc4ccc(C(F)(F)F)cc4)ccc3O[C@@H]2[C@H](CO)O1	-3.4	-1.7	-1.7
C[C@H](CO)N1C[C@H](C)[C@@H](CN(C)C(=O)C2CC2)Oc2cc(-c3ccccc3F)ccc2S1(=O)=O	0.7	2.5	-1.8
CCCNC(=O)[C@@H]1[C@@H](CO)[C@@H]2Cn3c(cccc3=O)[C@H]1N2CCC(F)(F)F	9.4	5.3	4.1
N#C[C@@H]1[C@@H](c2ccccc2-c2cccc(F)c2)[C@@H](CO)N1C(=O)C1CC1	17.4	2.7	14.7
C[C@@H]1CN([C@@H](C)CO)C(=O)c2cc(C3=CCCCC3)cnc2O[C@@H]1CN(C)C(=O)CN1CCOCC1	0.9	3.1	-2.2
CO[C@@H]1CN(C)C(=O)c2ccc(NC(C)=O)cc2OC[C@@H](C)N(C(=O)c2ccccc2)C[C@H]1C	0.4	-3.1	3.5
CCCC#Cc1ccc([C@@H]2[C@@H](CO)N3C(=O)CN(C(=O)Nc4ccccc4F)C[C@@H]23)cc1	-7.2	-7.0	-0.2
O=C(Nc1ccccc1)[C@H]1[C@H](CO)[C@H]2Cn3c(cccc3=O)[C@H]2N1C(=O)C1CCCC1	12.0	44.3	-32.3
O=C(C[C@H]1CC[C@@H]2[C@H](COC[C@H](O)CN2C(=O)C2CCCC2)O1)NCc1ccncc1	4.4	1.5	2.9
Cc1noc(C)c1NC(=O)N(C)C[C@H]1Oc2c(NC(=O)c3nc4ccccc4s3)cccc2C(=O)N([C@@H](C)CO)C[C@@H]1C	-3.4	-3.5	0.2
CC(C)C#Cc1ccc([C@H]2[C@@H](C#N)N(C(=O)C3CCC3)[C@@H]2CO)cc1	0.7	-0.3	1.0
COc1ccc2c3c(n(C)c2c1)[C@H](CO)N(C(=O)CN(C)C)CC31CN(C(=O)C2CCC2)C1	10.0	6.0	3.9
C[C@H](CO)N1C[C@H](C)[C@@H](CN(C)C(=O)Nc2ccc(F)cc2)OCc2ccccc2-c2c(n(C)c3ccccc23)C1=O	?	.	.

Continued:
SMILES	DUX4 inh	DUX4 inh difference	DUX4 inh control
COc1ccc(NC(=O)N(C)C[C@@H]2Oc3ncc(-c4cccnc4)cc3C(=O)N([C@@H](C)CO)C[C@@H]2C)cc1	1.9	0.0	1.9
CC(C)NC(=O)Nc1ccc2c(c1)C(=O)N([C@H](C)CO)C[C@@H](C)[C@@H](CN(C)S(=O)(=O)c1ccc(F)cc1)OCCCC[C@H](C)O2	5.2	4.9	0.3
COc1ccc2c3c([nH]c2c1)[C@@H](CO)N(C(=O)Nc1ccc(F)cc1)CC31CN(Cc2cc(F)ccc2F)C1	-9.8	-3.1	-6.7
COc1ccc(-c2ccc3n(c2=O)C[C@@H]2[C@@H](CO)[C@H](C(=O)N4CCCCC4)[C@H]3N2C)cc1	11.2	-2.7	13.8
CNC[C@H]1Oc2ccc(NC(=O)Nc3c(C)noc3C)cc2C(=O)N([C@H](C)CO)C[C@@H]1C	-3.8	-1.6	-2.2
Cc1ccccc1NC(=O)Nc1ccc2c(c1)C(=O)N(C)[C@@H]1CC[C@H](CC(=O)NCC3CC3)O[C@@H]1CO2	0.9	-0.7	1.7
O=C(O)C[C@@H]1C[C@@H]2c3cc(NC(=O)Nc4ccc(C(F)(F)F)cc4)ccc3O[C@@H]2[C@@H](CO)O1	4.1	6.5	-2.4
COCC(=O)Nc1ccc2c(c1)C(=O)N(C)C[C@H](OC)[C@@H](C)CN(C(C)=O)[C@H](C)CO2	1.8	4.1	-2.4
COc1cc(CN2CC3(CN(S(=O)(=O)c4cccs4)C3)c3c(n(C)c4cc(OC)ccc34)[C@@H]2CO)cc(OC)c1	?	.	.
C[C@H]1CN([C@@H](C)CO)C(=O)CCCn2cc(nn2)CO[C@H]1CN(C)C(=O)c1ccc(N2CCN(C)CC2)cc1	1.6	4.1	-2.6
C[C@@H]1CCCCO[C@H](CN(C)C(=O)Cc2ccccc2)[C@H](C)CN([C@H](C)CO)C(=O)c2cc(NS(C)(=O)=O)ccc2O1	3.1	-4.1	7.2
Cn1cnc(S(=O)(=O)N2C[C@@H](O)COC[C@H]3O[C@@H](CC(=O)NCc4cc(F)cc(F)c4)CC[C@@H]32)c1	2.2	-2.3	4.5
CC(=O)N1[C@@H]2c3ccc(-c4ccc(F)cc4)c(=O)n3C[C@@H]2[C@@H](CO)[C@@H]1C(=O)N(C)C	-0.2	1.3	-1.5
COc1ccc2c3c(n(C)c2c1)[C@H](CO)N(Cc1nccs1)CC31CCN(C(C)=O)CC1	7.6	15.6	-8.0
C[C@@H]1CN([C@@H](C)CO)C(=O)CCCn2nncc2CO[C@H]1CN(C)C(=O)Nc1cccc(Oc2ccccn2)c1	3.0	5.1	-2.1
CN(C)CC(=O)Nc1ccc2c(c1)[C@H]1C[C@H](CC(=O)NCC3CC3)O[C@H](CO)[C@H]1O2	4.1	3.0	1.1
CN1C(=O)c2cc(NC(=O)Nc3ccc(Cl)cc3)ccc2OC[C@@H]2O[C@H](CC(=O)NCCN3CCCCC3)CC[C@H]21	1.5	-6.9	8.4
CN1C(=O)c2cc(NS(C)(=O)=O)ccc2OC[C@H]2O[C@H](CC(=O)O)CC[C@H]21	2.3	10.9	-8.6
C[C@H](O)C#Cc1cnc2c(c1)C(=O)N([C@@H](C)CO)C[C@@H](C)[C@@H](CN(C)C(=O)c1ccccc1F)O2	-0.5	-1.0	0.4
COc1ccccc1NC(=O)N[C@@H]1CC[C@@H](CCn2cc(-c3cccnc3)nn2)O[C@@H]1CO	2.0	2.8	-0.7
C[C@H](CO)N1C[C@H](C)[C@@H](CN(C)S(=O)(=O)c2cccs2)Oc2c(cccc2N(C)C)C1=O	-1.9	-0.1	-1.8
COCCNC(=O)C[C@@H]1C[C@H]2c3cc(NS(C)(=O)=O)ccc3O[C@H]2[C@H](CO)O1	5.8	4.9	0.9
CC(=O)N1[C@H](CO)[C@H](c2ccc(C3=CCCC3)cc2)[C@@H]1CNC(=O)CC1CC1	0.2	-1.5	1.7
COC(=O)c1ccc(CN2CC(=O)N3[C@H](CO)[C@@H](c4ccc(Br)cc4)[C@H]3C2)cc1	3.9	0.3	3.6
CN1CCN(C(=O)C[C@H]2CC[C@@H]3[C@H](COC[C@@H](O)CN3S(=O)(=O)c3cccc(Cl)c3)O2)CC1	5.4	0.2	5.2
C[C@@H]1CN([C@H](C)CO)C(=O)c2cc(-c3ccc(C#N)cc3)cnc2O[C@@H]1CN(C)C(=O)Nc1ccccc1	5.3	0.4	4.9

Molecules above that have a cyano group, in the order listed:
SMILES	DUX4 inh	DUX4 inh difference	DUX4 inh control
CCCNC(=O)c1cc2c(c(-c3cccc(-c4ccc(C#N)cc4)c3)n1)[C@H](CCO)N(C(=O)CC)C2	1.5	-0.7	2.2
N#C[C@@H]1[C@@H](c2ccc(C#CC3(O)CCCC3)cc2)[C@@H](CO)N1C(=O)C1CCCCC1	0.5	-1.8	2.4
CC(C)C#Cc1ccc([C@H]2[C@H](C#N)N(C(=O)C3CCC3)[C@H]2CO)cc1	-1.3	-2.7	1.4
COCC(=O)N1[C@H](CO)[C@@H](c2ccccc2-c2ccccc2)[C@@H]1C#N	23.7	11.0	12.6
CCC(=O)N1[C@H](CO)[C@@H](c2ccccc2-c2cccc(C)c2)[C@@H]1C#N	9.7	11.0	-1.3
N#C[C@@H]1[C@@H](c2ccccc2-c2cccc(F)c2)[C@@H](CO)N1C(=O)C1CC1	17.4	2.7	14.7
CC(C)C#Cc1ccc([C@H]2[C@@H](C#N)N(C(=O)C3CCC3)[C@@H]2CO)cc1	0.7	-0.3	1.0
C[C@@H]1CN([C@H](C)CO)C(=O)c2cc(-c3ccc(C#N)cc3)cnc2O[C@@H]1CN(C)C(=O)Nc1ccccc1	5.3	0.4	4.9

Compound activity (PubChem)

Some of the compounds tested; rates above refer to the full screens.
